HSD17B inh: qHTS Assay for Inhibitors of HSD17B4, hydroxysteroid (17-beta) dehydrogenase 4 | 3-hydroxyacyl-CoA dehydrogenase type-2 (Homo sapiens), Q99714 | recombinant HSD17B10, NADH fluorescence kinetic; many of its hits are not listed in these tables | Potency, µM (top dose mostly 57.1 µM), for inactives: top-dose activity change, negative = inhibition, hits mostly inhibitors | hit rate 7.6% among 75,000 | AID 893, 2007; active = well fitted inhibition curve with a large enough effect; inconclusive = small, poorly fitted or top-dose-only effect; inactive = no such curve, though single readings can be large or run the other way;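 also: the protocol describes HADH2 (HSD17B10) and not the HSD17B4 of the title; nearly all actives have a fitted effect of over 70% in size; most hits overshoot -100% by far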
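20 nM HADH2, pH 9.0 Tris/Tween; cpd preinc 15 min RT; start w/ 1 mM NAD+ + 90 uM b-hydroxybutyryl-CoA; kinetic fluor ex360/em450 q30s x 4 min; delta last-first.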
Active calls of the source: *; i = inactive; ? = inconclusive; & = joins results of further samples; [ ] = dose if it differs, or a comment. % is scaled to controls: 0 for no effect and ±100 for the full control effect; potency is read from the fitted curve at half-maximal effect. Some of the compounds tested; count on the stated rates, not on these rows.

Preview:
SMILES	HSD17B inh
O=C(C1=C(O)C(=O)N(CCN2CCOCC2)C1c1ccncc1)c1ccco1 (stereo not drawn)	-2%
COC(=O)c1ccc(OC(=O)c2ccccn2)cc1	5%

The list itself, previewed entries included:
SMILES	HSD17B inh
O=C(C1=C(O)C(=O)N(CCN2CCOCC2)C1c1ccncc1)c1ccco1 (stereo not drawn)	-2%
COC(=O)c1ccc(OC(=O)c2ccccn2)cc1	5%
CC(=O)Nc1sc(C)c(C)c1C(=O)OC1CCOC1=O (stereo not drawn)	-17%
O=C(COc1ncnc2sccc12)N1CCN(S(=O)(=O)c2ccc(Cl)cc2)CC1	3%
CCn1c(C(=O)N2CCC(C(=O)NCc3ccc4c(c3)OCO4)CC2)cc2sccc21	-7%
O=C1C=CC(=O)c2c1ccc1c2ccc2ccccc21	-21%[25.6 µM]
CCN(CC)CCNc1nc2ccccc2n1C	-7%
Cc1cc(Nc2cc(F)ccc2C)n2nc(C)nc2n1	6%
CC(C)N1C(=S)SC(C)(C)C1NO (stereo not drawn)	7%
Cc1ccc(SC/C(O)=C(\C#N)c2nc3ccccc3n2C)cc1	-15%
Cc1cc(N)ccc1-n1c(C)ccc1C	-9%
CCCCCCN(C(=O)CCCCCN1C(=O)NC(c2ccc(-c3ccccc3)cc2)C(C(=O)OCc2ccccc2)=C1C)C(C(=O)NCCCC)c1ccc(-c2ccccc2)cc1 (stereo not drawn)	-2%
COc1ccc2[nH]c(=O)c(CN(CC3CCCO3)C(=O)Nc3ccccc3OC)cc2c1 (stereo not drawn)	?
CCN1c2ccccc2NC2C1C(C(C)=O)C(=O)N2c1ccc(Cl)cc1 (stereo not drawn)	-6%
CCCCOC(=O)CN1C(=O)c2ccc(C(=O)OCCCC)cc2C1=O	-9%
COc1ccc(C(=O)CSc2nnc(-c3cnccn3)n2Cc2ccco2)cc1	-2%
CCCc1cc(-n2ccnc2)n2c(nc3ccccc32)c1C#N	-10%
CC(=O)N1CCC[C@@]2(CCN(C(c3ccccc3)c3ccccc3)C2)C1	-5%
O=C(OC(C(=O)NCc1cccs1)c1ccccc1Cl)c1ccco1 (stereo not drawn)	-5%
Cc1cc(NC(=O)CCN2CCC(C(N)=O)CC2)ccc1Br	5%
COc1ccc(CNc2ncnc3ccc(-c4ccc5c(c4)OCO5)cc23)c(OC)c1	25µM*
COc1cccc(N2CCN(C3CC(=O)N(c4ccc(C)c(Cl)c4)C3=O)CC2)c1 (stereo not drawn)	4%
Cc1ccc(C2CC(=O)Nc3sc(C(N)=O)c(N)c32)cc1 (stereo not drawn)	2%
CC(=O)OCC(=O)[C@@]1(O)CC[C@@H]2[C@H]3CCC4=CC(=O)CC[C@]4(C)[C@]3(F)[C@@H](O)C[C@@]21C	-11%[25.6 µM]
O=C1N(c2ccc(Cl)c(Cl)c2)CN(Cc2ccccc2)CN1n1cnnc1	6%
SMILES	HSD17B inh
Brc1cnc(N2CCCC2)nc1N1CCOCC1	1%
Cc1cc(C)n(C(=O)CN2C(=O)COc3ccccc32)n1	9%
O=C(Nc1ccc(-c2cn3ccsc3n2)cc1)C1CCCC1	7%
O=C(CSc1nnc(Cc2ccccc2)o1)NCc1ccco1	6%
CCC(C)C(=O)OC1C2CC3=C4CC(=O)OC(c5ccoc5)[C@]4(C)CCC3[C@@](C)(C2=O)C(CC(=O)OC)C1(C)C (stereo partly drawn)	-7%
CCCCCCC(=O)N(O)C1CC(=O)N(c2ccccc2)C1=O (stereo not drawn)	?
O=C(CCS(=O)(=O)c1cccc2nonc12)NCCc1ccccc1Cl	-5%
Cc1cnc(CNc2ccnc(-c3ccccc3Cl)n2)cn1	0%
COC(=O)c1cccc(Oc2nc(N3CCOCC3)nc(N3CCOCC3)n2)c1	3%
N=c1nc(-c2ccccc2)ccn1O	-18%
O=C(NCCN1CCOCC1)C1CC(=O)N(c2ccc(F)c(Cl)c2)C1 (stereo not drawn)	0%
CCOc1ccc(N2Cc3ccccc3C2)cc1	-8%
Cc1ccc(C(c2nnnn2C(C)(C)C)N2CCN(C3CCCC3)CC2)cc1 (stereo not drawn)	3%
C=CCn1cnc2c(NCc3ccccc3)ncnc21	2%
Nc1ncc2c(n1)CC(c1ccco1)CC2=O (stereo not drawn)	-2%
Cc1nc2cc(-c3ccccc3)ccc2o1	0%
COc1ccc(OC)c(NC(=O)CCN2CCN(c3ccccc3F)CC2)c1	7%
COc1ccc(CCNC(=O)CCSc2nc(-c3ccco3)cc(C(F)(F)F)n2)cc1	-6%
Cc1ccc(S(=O)(=O)C2(C(=O)Nc3ccc(F)cc3)CC2)cc1	-4%
COC(=O)Cc1cc(=O)[nH]c(/N=C(\N)Nc2ccc(C)cc2C)n1	14%
Cc1c(C)c2c(C)nn(-c3ccccc3)c2[nH]c1=O	-17%
CSC1=Nc2sc3c(c2C2=NCCN12)CCCC3	2%
CC(=O)NC(Cc1ccc(C(C)C)cc1)C(=O)NC1CCN(c2nc(C)cc(C)n2)CC1 (stereo not drawn)	-20%
CCCn1nnnc1SCC(=O)N(C(C)C)C(C)C	-1%
O=C1c2ccccc2C(=O)N1Cc1nc2ccccc2c(=O)n1CCCn1ccnc1	2%

7 entries out of the list, sorted by heavy-atom count, low to high:
SMILES	HSD17B inh
Cc1c(C)c2c(C)nn(-c3ccccc3)c2[nH]c1=O	-17%
O=C(CSc1nnc(Cc2ccccc2)o1)NCc1ccco1	6%
O=C(NCCN1CCOCC1)C1CC(=O)N(c2ccc(F)c(Cl)c2)C1 (stereo not drawn)	0%
O=C(CCS(=O)(=O)c1cccc2nonc12)NCCc1ccccc1Cl	-5%
Cc1ccc(C(c2nnnn2C(C)(C)C)N2CCN(C3CCCC3)CC2)cc1 (stereo not drawn)	3%
COC(=O)c1cccc(Oc2nc(N3CCOCC3)nc(N3CCOCC3)n2)c1	3%
COc1ccc(CCNC(=O)CCSc2nc(-c3ccco3)cc(C(F)(F)F)n2)cc1	-6%

(list continues)
SMILES	HSD17B inh
CS(=O)(=O)N1CCC(C(=O)c2cccc(Cl)c2)CC1	4%
COc1cc2c(cc1OC)C1=C(C#N)CCC(=O)N1CC2	4%
CCOC(=O)c1cccc(NC(=O)CCNS(=O)(=O)c2ccc3c(c2)CCN3C(=O)CC)c1	4%
CCn1c(=O)c2cc(S(=O)(=O)NCc3ccccc3)ccc2n(CC)c1=O	7%
COc1ccc2[nH]cc(CCNC(=O)C3CCCNC3=O)c2c1 (stereo not drawn)	8%
CCn1c(SCC(=O)N2CCN(c3ccccc3)CC2)nc2c(c1=O)SC(C)C2 (stereo not drawn)	-10%
O=S(=O)(NCc1ccc(F)cc1)c1ccc2c(c1)OCCO2	5%
CNC(=O)NC(=O)CSc1ncc(C(F)(F)F)cc1Cl	12%
CCn1nnnc1SCC(=O)NCc1ccco1	3%
CCCCC(c1nnnn1CC1CCCO1)N1CCN(c2cc(Cl)ccc2C)CC1 (stereo not drawn)	5%
CCCCC(CC)CO (stereo not drawn)	3%
Cc1nnc(N2C(=O)C(O)=C(C(=O)c3ccco3)C2c2ccc(F)cc2)s1 (stereo not drawn)	-10%
CCCOc1ccc(CSc2ncn[nH]2)cc1	-1%
Cc1cc(C(=O)CSc2nc3ccccc3o2)c(C)n1C1CC1	-6%
COc1ccc(C/C(O)=C(\C#N)c2nc3ccccc3[nH]2)cc1OC	0%
Cn1c(CN2CCOCC2)nc2cc(NC(=O)c3ccccc3Cl)ccc21	12%
O=S(=O)(c1ccccc1)N1CCC[C@@]2(CCN(Cc3nccs3)C2)C1	10%
O=C(NCc1cccs1)C1CCCN1S(=O)(=O)c1ccccc1F (stereo not drawn)	9%
O=C1C[C@@H](O)[C@@H](O)[C@H]2[C@@H]3C(=O)N(C[C@@H]4CCCO4)C(=O)[C@@H]3CC[C@H]12	6%&7%[11.4 µM]
O=C(O)C1NCCc2ccccc21 (stereo not drawn)	-9%
O=C(c1ccc2c(c1)OCO2)N1CCCN(C(=O)c2ccc3c(c2)OCO3)CC1	-1%
O=C(CCCc1ccc(-c2ccccc2F)cc1)Nc1ccc(O)cc1	-10%
COCCNC(=O)C(c1ccc(F)cc1)N(CC1CCCO1)C(=O)CCC(=O)Nc1ccccn1 (stereo not drawn)	8%
O=C(Nc1cnn(C23CC4CC(CC(C4)C2)C3)c1)c1cc(-c2ccccc2)on1	99%[activator]
CCCCCC(=O)Nc1ccc2oc(-c3cncc(Br)c3)nc2c1	-22%

An excerpt from the list above:
SMILES	HSD17B inh
O=C(C1=C(O)C(=O)N(CCN2CCOCC2)C1c1ccncc1)c1ccco1 (stereo not drawn)	-2%
COC(=O)c1ccc(OC(=O)c2ccccn2)cc1	5%
CC(=O)Nc1sc(C)c(C)c1C(=O)OC1CCOC1=O (stereo not drawn)	-17%

Carrying on.
SMILES	HSD17B inh
C=CCn1c(COc2ccccc2)nnc1SCC(=O)C(C)(C)C	-4%
CCCN1CCN(c2nc3c([nH]2)c(=N)ncn3CC(O)CO)CC1 (stereo not drawn)	-7%
C=Cn1c(N2CCOCC2)nc2c1c(=O)[nH]c(=O)n2C	10%
CCOC(=O)c1c(CN2CCCCC2)n(C)c2ccc(OC)c(S(=O)(=O)c3ccccc3)c12	10%
Cn1cccc1C(=O)N1CCC2(CCCN(c3ncccn3)C2)CC1	?
CN(C(=O)C1CCOC1)c1nnc(-c2ccccn2)s1 (stereo not drawn)	i
COC(=O)c1sccc1NC(=O)c1c(C)noc1C	20µM*
COCCn1nnnc1C(c1cccs1)N1CCN(c2cc(C)ccc2C)CC1 (stereo not drawn)	-7%
CCOC(=O)N1CCN(C(=O)CS(=O)Cc2nc(-c3ccc(C)cc3)oc2C)CC1 (stereo not drawn)	0%
O=S(=O)(c1ccc(Oc2ccc(-c3nnco3)cc2)nc1)N1CCC(Cc2ccccc2)CC1	-8%
CC(C)CN(CC(C)C)S(=O)(=O)N1CCC(C(=O)NC2CCCCCCC2)CC1	4%
O=C(NCC12CC3CC(CC(C3)C1)C2)c1nc2ncccn2n1	9%
Cc1cc(N2CCOCC2)nc2ccc(NC(=O)C3CCC(C)CC3)cc12 (stereo not drawn)	7.9µM*
O=S(=O)(Nc1cccc(-c2cn3ccsc3n2)c1)c1ccc(F)cc1	-6%
Cc1ccc2cc(CCNC(=O)c3ccco3)c(=O)[nH]c2c1	?
Cc1nnc(SCC(=O)Nc2ccc3c(c2)OCCO3)s1	3%
O=C(OC(C(=O)NCc1cccs1)c1ccc(F)cc1)c1ccco1 (stereo not drawn)	-2%
CC(C)Oc1cccc(C(=O)Nc2ccc(N3CCN(S(C)(=O)=O)CC3)cc2)c1	4%
Cn1c(=O)c2c(nc(CN3CCCCC3)n2CCCc2ccccc2)n(C)c1=O	0%
Nc1nonc1NC(=O)CSc1ncccc1C(=O)O	3%
N#Cc1cc2sc3nc4ccccc4n3c2cc1C#N	-9%
CN(Cc1ccccc1)C(=O)CSc1nnc(-c2ccco2)n1-c1ccccc1	-14%
O=C(CSc1nnc(COc2ccccc2Cl)o1)NC(=O)NC1CCCC1	1%
COc1ccccc1C(=O)Nc1cccc(-c2cn3ccsc3n2)c1	-12%
COc1ccccc1C(=O)Nc1ccc2oc(-c3ccc(F)cc3)nc2c1	32µM*
SMILES	HSD17B inh
COc1ccccc1OCc1nnc(SCCN2CCOCC2)o1	-1%
CCc1ccc(S(=O)(=O)NCCc2csc(-c3ccccc3)n2)s1	-25%
CCOC(=O)c1cc2c(c(CSc3nc4ccccc4c(=O)n3Cc3ccco3)c1)OCOC2	7%
CC(C)NC(=O)NC1C2CC3CC(C2)CC1C3 (stereo not drawn)	3%
CN(C)/C=N/c1c(C#N)cnn1-c1ccc(C(F)(F)F)cn1	15%
Cc1nnc(SCC(=O)N2c3ccccc3CC2C)s1 (stereo not drawn)	1%
O=c1cc(Nc2ccc3c(c2)OCCO3)[nH]c(=O)n1-c1ccc(Br)cc1	0%
Cc1ccccc1-c1cc(-n2ccnc2)ncn1	-9%
CN(C)CCCN1C(=O)c2oc3ccc(Cl)cc3c(=O)c2C1c1cccnc1 (stereo not drawn)	8%
Cc1nnc(Sc2nc3c(c(=O)n(C)c(=O)n3C)n2Cc2ccc(Cl)cc2)s1	-7%
Cc1cc(C)n(-c2nc(SCC(=O)NCC3CCCO3)c3c4c(sc3n2)CCCC4)n1 (stereo not drawn)	3%
CCCc1cc(=O)[nH]c(Nc2cc(OC)ccc2OC)n1	-19%
CCNS(=O)(=O)c1ccc(OCCNS(C)(=O)=O)cc1	9%
CC(OC(=O)c1cc2sccc2n1C)C(=O)NCC1CCCO1 (stereo not drawn)	5%
CCOC(=O)c1c(CN2CCOCC2)n(-c2ccccc2)c2ccc(O)cc12	-11%
O=S(=O)(NCCc1csc(-c2ccccc2)n1)c1ccc2c(c1)OCCO2	-13%
CCOCCCNC(=O)c1ccc2c(c1)OCO2	9%
Cn1c(=O)cc(OCC(=O)NCc2cccnc2)c2ccccc21	1%
CN(C(=O)CSc1nc(N)nn1-c1ccccc1)c1ccccc1	-2%
COc1cccc(NC(=O)CSc2nnc(Cn3c(=O)sc4ccccc43)n2C)c1	2%

Grouped by structure, the entries above with a COOH group (2)
SMILES	HSD17B inh
O=C(O)C1NCCc2ccccc21 (stereo not drawn)	-9%
Nc1nonc1NC(=O)CSc1ncccc1C(=O)O	3%

Assay outcomes deposited in PubChem BioAssay by National Center for Advancing Translational Sciences (NCATS).
